ClpP mod: qHTS Assay for Activators of ClpP | ATP-dependent Clp protease proteolytic subunit (Bacillus subtilis (strain 168)), P80244 | purified B. subtilis ClpP, FRET peptide cleavage, 20 min | Potency, µM (titrated, usually from 57.5 µM), for the others: at the highest dose activity change, negative = active | hit rate 1.9% among 340,000 | AID 651965, 2013; active = well fitted falling curve with a large enough effect; inconclusive = small, poorly fitted or top-dose-only effect; inactive = no such curve, though single readings can be large or run the other way; also: potency is read from the fitted curve at half-maximal effect; the source files actives as falling curves though it sought activators and does not explain the sign; nearly all actives have a fitted effect of over 65% in size; many hits overshoot -100%
Target sequence (P80244 whole entry, looked up): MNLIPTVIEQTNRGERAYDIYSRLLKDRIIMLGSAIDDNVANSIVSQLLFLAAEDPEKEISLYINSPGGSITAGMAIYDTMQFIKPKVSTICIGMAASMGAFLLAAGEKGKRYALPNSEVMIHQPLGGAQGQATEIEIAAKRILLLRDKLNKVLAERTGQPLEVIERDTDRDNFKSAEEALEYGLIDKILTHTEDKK
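Buffer: 100 mM Tris/HCl pH8, 100 mM KCl, 0.05% low protease BSA, 2.5% glycerol, 0.01% Tween-20. ClpP 10 microg/mL final; 20 min RT; delta FRET normalized to ADEP and DMSO controls.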
Sfp PPTase inh: blocks B. subtilis Sfp PPTase activity. Potency, µM, for the others: max response, negative = inhibition, actives largely listed as inhibitors. Q9F4F7. Biochemical Sfp PPTase activity, qHTS. hit rate 3.5% among 310,000; active = well fitted inhibition curve with a large enough effect; inconclusive = small, poorly fitted or top-dose-only effect, or another doubt; inactive = no such curve, though single readings can be large or run the other way;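 also: the enzyme is Sfp with the accession as filed and its product quenches rhodamine fluorescence; potency is read from the fitted curve at half-maximal effect; 0% = enzyme reaction without inhibitor and -100% = no enzyme wells; top concentration of the series not given in the record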
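Reaction rates are the 30-min fluorescence difference (ex 525, em 598 nm) in wells containing 15 nM Sfp, 5 uM rhodamine-CoA and 12.5 uM BHQ-2-YbbR at pH 7.6 with 10 mM MgCl2.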
Menin MLL FP FL: inhibitors of human menin-MLL interaction, wild-type MLL peptide. FP activity change, % at 61.4 µM. AID 1766. Fluorescence polarization, fluorescein-MLL peptide displacement from menin. 290,000 tested, under 10 active; inconclusive = falling polarisation curve, or a change in total fluorescence; inactive = total fluorescence flat and polarisation flat or rising; no compound was filed as active; the % refers to the polarisation; negative = inhibition;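 also: % of control where 0% means no effect; inhibitors lower the polarisation; unlabelled MLL peptide was the positive control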
CtBP-E1A blk: blocks the CtBP interaction with E1A; AlphaScreen GST-E1A/His-CtBP binding, 1536-well; active compounds read low; control for the full effect not named in the record; activity change, % (test concentration not listed); hit rate 0.49% among 340,000; in the data active means activity change below about -65%; inconclusive means about -30% to -65%; inactive means above about -30%; also: % is scaled to controls: 0 for no effect and ±100 for the full control effect
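In 5 uL wells, 23 nL compound meets equimolar GST-E1A and His-CtBP (5X stock 125 nM each) for 2 h, 37 °C. Beads (5X, 50 ug/mL) then 1 h, 37 °C, dark.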
gsp antagonist: gsp mutant antagonism | gsp-mutant cells, cAMP HTRF, 30 min; control for the full effect not named in the record | hit rate 0.4% among 340,000 | Potency, µM (top dose mostly 76.9 µM), inactives show at the top dose activity change, negative = inhibition, usual class: inhibitors; active = falling curve of any shape with a large fitted effect; inconclusive = falling curve, mostly with a smaller effect; inactive = flat or rising curve; cell line not stated here;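 also: intracellular cAMP measured with PDE inhibitor Ro 20-1724 present during compound exposure; potency is read from the fitted curve at half-maximal effect; % is scaled to controls: 0 for no effect and ±100 for the full control effect; nearly all actives have a fitted effect of over 65% in size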
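HTRF cAMP measurement after 30 min RT detection following 30 min, 37C compound treatment alongside […] (added as 300 uM solution) in G418-selected cells seeded at 2000/well and grown 16–24 h.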
TRPV1 potentiator: potentiators of human vanilloid receptor 1 (TRPV1). Q8NER1. TRPV1-expressing cells, Fluo-8 calcium influx, capsaicin EC20 potentiation; host cell line not named in the record; control for the full effect not named in the record. potentiation, % at 8.33 µM. hit rate 0.02% among 320,000. AID 540277; active means potentiation above 80%; inconclusive means 30% to 80%; inactive means below 30%; also: 0% is about no effect
Target sequence (Q8NER1 whole entry, looked up): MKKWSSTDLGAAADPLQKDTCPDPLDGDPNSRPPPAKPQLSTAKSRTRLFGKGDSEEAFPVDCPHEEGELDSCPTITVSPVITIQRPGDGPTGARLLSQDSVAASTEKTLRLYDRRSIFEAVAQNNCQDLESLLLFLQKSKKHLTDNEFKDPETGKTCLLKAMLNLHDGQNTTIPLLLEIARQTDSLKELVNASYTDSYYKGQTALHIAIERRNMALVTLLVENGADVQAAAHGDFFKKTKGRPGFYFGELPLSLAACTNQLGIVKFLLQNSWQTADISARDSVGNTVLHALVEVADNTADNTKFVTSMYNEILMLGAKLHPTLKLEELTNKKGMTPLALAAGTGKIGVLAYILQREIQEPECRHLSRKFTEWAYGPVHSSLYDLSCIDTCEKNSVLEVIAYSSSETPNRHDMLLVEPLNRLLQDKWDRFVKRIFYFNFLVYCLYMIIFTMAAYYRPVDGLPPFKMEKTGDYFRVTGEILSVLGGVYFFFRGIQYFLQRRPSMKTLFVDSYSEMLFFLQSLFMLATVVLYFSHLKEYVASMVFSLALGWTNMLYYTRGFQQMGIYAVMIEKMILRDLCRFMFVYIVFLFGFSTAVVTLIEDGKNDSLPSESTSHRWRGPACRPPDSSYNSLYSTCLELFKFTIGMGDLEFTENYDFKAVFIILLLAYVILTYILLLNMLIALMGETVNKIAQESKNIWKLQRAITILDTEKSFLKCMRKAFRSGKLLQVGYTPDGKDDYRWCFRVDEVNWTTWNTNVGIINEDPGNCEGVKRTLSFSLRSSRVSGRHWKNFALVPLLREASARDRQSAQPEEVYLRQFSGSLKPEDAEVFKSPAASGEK
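Fluo-8 calcium influx in TRPV1-expressing cells, kinetic read (ex 480/em 520 nm). Compound added and read 3 min for agonist activity, followed by capsaicin at EC20 final and 2 min further read for enhancement.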
gsp agonist: agonists of gsp mutant (McCune-Albright syndrome). AID 624287. gsp mutant cells, cAMP HTRF, 30 min; control for the full effect not named in the record. Potency, µM (series often up to 76.9 µM), inactives show at the top dose activation (cAMP increase), actives largely listed as activators. hit rate 0.13% among 340,000; active = well fitted activation curve with a large enough effect; inconclusive = small, poorly fitted or top-dose-only effect, or another doubt; inactive = no such curve, though single readings can be large or run the other way; cell line not stated here;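 also: phosphodiesterase inhibitor Ro 20-1724 added with compounds to block cAMP breakdown; potency is read from the fitted curve at half-maximal effect; nearly all actives have a fitted effect of over 60% in size; about a fifth of the inactives were tested at one dose only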
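Cells in DMEM/10% FBS with G418 were pretreated with compounds in DMSO plus […] (300 uM stock) for 30 min at 37C. cAMP was measured by HTRF (cAMP-d2 plus anti-cAMP antibody-K) after 30 min at room temperature.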
Numbers without * were called inactive; ? = inconclusive; · = no result given; & = joins results of further samples; [ ] = dose if it differs, or a comment.

SMILES | ClpP mod | Sfp PPTase inh | Menin MLL FP FL | CtBP-E1A blk | gsp antagonist | TRPV1 potentiator | gsp agonist
Cc1cc(C)n(-c2ccc(C(=O)Nc3nnc(C)s3)cc2)n1 | -2.3% | -0.3% | 1.7 | 8.2 | -5.1% | 4.9 | 14.6%
CCCn1c(N)c(N(CCOC)C(=O)/C=C/c2cccc(Cl)c2)c(=O)[nH]c1=O | 0.6% | 19.6% | 1.3 | 4.2 | 13.8% | -5.0 | -12.3%
O=C(NCCCN1CCCCC1)C1(S(=O)(=O)c2ccc(Cl)cc2)CC1 | -1.1% | 9.0% | 1.8 | 1.6 | 5.7% | -10.1 | ?
C[n+]1ccn(CC(=O)c2cc(C(C)(C)C)c(O)c(C(C)(C)C)c2)c1 | -1.6% | 0.4% | 1.0 | -1.4 | 0.1% | 3.9 | -15.0%
CNS(=O)(=O)c1cc(NC(=O)c2cnc(SC)n2-c2ccccc2)ccc1C | · | -1.1% | -0.2 | -2.2 | -0.3% | 0.8 | -13.5%
CCCc1cc(=O)[nH]c(SCC(=O)Nc2nc3ccc(OCC)cc3s2)n1 | -4.3% | 15.4% | 0.7 | · | -9.4% | 23.3 | ?
c1ccc(-c2cc(-c3ccccc3)[nH]n2)cc1 | -3.1% | 4.1% | 1.8 | -5.0 | -0.8% | -8.8 | 3.2%
COCCNC(=O)C[C@@H]1C[C@H]2c3cc(NC(=O)Nc4ccc(F)cc4)ccc3O[C@H]2[C@H](CO)O1 | -0.2% | · | · | -14.3 | · | · | 8.2%
C=C(C)Cn1c(N2CCCC2)nc2c1c(=O)n(C)c(=O)n2C | · | -1.1% | -1.5 | 6.3 | -12.2% | 1.5 | -34.8%[inhibitor]
COc1cc2cc(CN(C(=O)NC3CCCCC3)C3CCCC3)c(=O)[nH]c2cc1OC | 25.1µM* | -14.1% | 1.9 | 1.2 | 6.2% | ? | 5.7%
Cc1cccc(OCC(O)CN2CC3(C)CC2CC(C)(C)C3)c1 (stereo not drawn) | 1.4% | -9.1% | 7.5 | 13.2 | -2.1% | 11.0 | -0.7%
CC(C)(C)c1ccc(C(=O)NCCC(=O)N2CCCC2)cc1 | · | 9.8% | -1.1 | -0.4 | 3.1% | -7.5 | 3.2%
CC(C)CN(C(=O)CCCOc1ccc(Cl)cc1Cl)c1c(N)n(Cc2ccccc2)c(=O)[nH]c1=O | -7.4% | · | · | -0.3 | -7.1% | 19.3 | 3.9%[15.4 µM]
O=c1cc(NCc2ccc3c(c2)OCO3)[nH]c(=O)n1-c1ccc(Cl)cc1 | -3.8% | 13.9% | 27.5 | 6.3 | 2.8% | 3.4 | -4.3%
CC(/C=N/n1c(-c2ccccn2)n[nH]c1=S)=C\c1ccccc1 | · | 1.7% | -1.5 | ? | -33.0% | -1.5 | 28.8%
COc1ccc(OC)c(N(CC(=O)N2CCN(c3cc(Cl)ccc3C)CC2)S(C)(=O)=O)c1 | -0.4% | 0.3% | 6.3 | -8.2 | -20.4% | -12.7 | 4.6%
O=C1CC(c2ccco2)Cc2nc(Nc3ccc(F)cc3)ncc21 (stereo not drawn) | -1.7% | ? | 2.7 | -3.4 | -18.5%[15.4 µM] | ? | 2.1%
O=C(CCc1ccccc1)NNC(=O)c1ccccc1Br | -2.2% | 20.6% | 7.0 | -2.6 | 14.2% | 2.3 | -29.8%
COc1ccc(-c2cc(=O)oc3c(C)c(OCC(=O)NCCCn4ccnc4)ccc23)cc1 | -18.8% | 5.6% | 3.0 | 0.0 | -12.3% | -9.2 | ·
O=C(N/N=C/c1ccc(OCC(=O)N2CCCC2)cc1)C(=O)NC1CC1 | -5.1% | 17.0% | · | · | 5.4% | 11.4 | 12.7%
Cc1ccc(N(C(=O)CCCC(=O)Nc2ccccn2)C(C(=O)NC2CCCC2)c2ccc(O)cc2)cc1C (stereo not drawn) | · | 17.1% | -0.4 | 1.1 | -14.3% | 0.2 | 9.3%[15.4 µM]
O=C(C/C=N\OCc1c(Cl)cccc1Cl)Oc1ccc(Cl)cc1Cl | -1.8% | 7.0% | 2.3 | -0.8 | -15.1% | 0.8 | -5.5%
N#C/C(=C\c1ccncc1)c1nc2ccccc2c(=O)[nH]1 | · | -17.6% | ? | -26.9 | -10.2% | -1.6 | 12.9%
Cc1ccc(NC(=O)Cc2noc3ccccc23)c(C)c1 | 2.6% | 20.7% | 1.8 | -2.4 | 6.7% | 14.9 | 2.8%[15.4 µM]
COC(=O)C1(Cc2ccc(O)cc2)OC(=O)C(O)=C1c1ccc(O)cc1 (stereo not drawn) | 0.3% | -26.5% | -7.5 | -0.3 | -3.0% | 16.1 | ·
CCOC(=O)C1CCCN(Cc2ccc(OC)c(OCc3ccccc3)c2)C1 (stereo not drawn) | -0.4% | -11.6% | -4.8 | -4.7 | -2.2% | -3.8 | 3.1%
Cc1ccccc1C(=O)NCC(=O)OC(C)C(=O)Nc1ccnn1C(C)C (stereo not drawn) | 1.5% | · | · | 4.1 | 0.9% | 10.5 | 2.5%
CC(C)CCNC(=O)C1c2ccccc2Oc2ccccc21 | · | 5.7% | -2.5 | 0.9 | -7.3% | -3.4 | -17.7%
O=C(CNc1ccccc1F)Nc1cccc2ccccc12 | · | 4.3% | 0.1 | 7.9 | 11.6% | 9.1 | 9.4%[15.4 µM]
CCOC(=O)CSc1nc2cc(C(=O)NCc3ccco3)ccc2c(=O)n1-c1ccc(F)cc1 | -2.7% | -10.8% | 3.3 | 2.0 | 9.3% | -18.8 | 7.5%
CCOC(=O)Cn1c2[n+](c3ccccc31)CC(O)CS2 (stereo not drawn) | -1.0% | -9.4% | 0.1 | 10.0 | 0.1% | -4.2 | -20.0%
CCN(CC)S(=O)(=O)c1ccc(OC)c(NC(=O)c2cccs2)c1 | · | 8.0% | 1.5 | ? | -6.5% | -8.0 | ?
Nc1ccc(N=Nc2ccccc2)c2cccnc12 | 0.1% | -21.7% | -3.1 | -72.7* | 5.6% | 15.3 | ?
Cc1ccc(C(=O)N/C(=C\c2ccccc2F)c2nc(=S)[nH][nH]2)cc1 | · | -6.0% | -3.6 | 3.3 | -18.0% | -2.1 | -27.9%[15.4 µM]
Cc1ccccc1C(=O)NNC1=NCCC1 | -1.0% | -5.7% | -1.0 | -0.7 | 10.3% | -2.1 | -32.1%
COc1ccccc1OCC(=O)N1CCN(C(=O)c2ccco2)CC1 | -0.9% | 14.5% | · | 22.8 | 3.4% | -6.0 | 12.0%[15.4 µM]
CC(C)(C)c1nc2scc(-c3cccs3)c2c(=O)o1 | -6.4% | -8.9% | 6.5 | 7.4 | -6.4%[15.4 µM] | 4.2 | 1.2%
O=C(CC1CCCC1)NNC(=O)c1ccccc1O | 4.6% | · | · | 0.0 | · | · | -42.7%[inhibitor]
Nc1c(NCCC2=CCCCC2)c(=O)[nH]c(=O)n1Cc1ccccc1 | -16.1% | -5.1% | -0.7 | 6.6 | -2.5% | 5.5 | -28.0%
CC(=O)Cc1nnn(-c2cc(C)on2)n1 | · | 16.7% | 0.6 | · | · | 0.8 | ·
COc1ncnc2c1ncn2CCCN1CCN(c2ncccn2)CC1 | 1.7% | · | · | -0.2 | · | · | 2.8%
Cc1cccc(Nc2cc(=O)[nH]c(=O)[nH]2)c1C | 0.8% | 3.6% | 2.4 | 5.6 | 17.6% | 4.8 | -17.9%
CN(C)/C(=N\S(=O)(=O)c1ccc(Cl)cc1)c1ccc(F)cc1 | · | 13.9% | 2.8 | 4.5 | 1.7% | 19.0 | -31.4%[inhibitor]
O=C(COC(=O)c1ccc(S(=O)(=O)N2CCOCC2)cc1)NCc1ccco1 | -2.2% | · | · | -1.3 | · | · | -54.1%[inhibitor]
C[C@@H](NC(=O)[C@@H]1Cc2ccccc2CN1)C(=O)NCc1ccco1 | · | -7.3% | · | 4.9 | 1.8% | 8.2 | ?
C=CCOn1c(=O)c(-c2cc3ccccc3o2)[n+]([O-])c2ccccc21 | -5.8% | 5.0% | ? | 6.1 | -4.2% | 5.3 | 34.3%
CSc1ccc(S(=O)(=O)NCCSC(C)(C)C)cc1 | -0.6% | 9.8% | -0.1 | 9.6 | -16.6% | -4.7 | -0.9%
c1cncc(CNc2nc(-c3cccnc3)nc3ccccc23)c1 | -5.8% | 13.0%&-10.7% | -0.2&4.7 | ? | -3.3% | 11.9 | -20.3%
CC(C(=O)NCC1CCCCC1)N(C)Cc1cccc(Cl)c1 (stereo not drawn) | -0.7% | 13.5% | 4.6 | -3.0 | 2.9% | 11.6 | 14.7%
O=C(NC1(C(F)(F)F)NC(=O)N(CCc2ccccc2)C1=O)C1CC1 (stereo not drawn) | 0.6% | 19.4% | 5.8 | 2.3 | 4.2% | 5.7 | -31.9%[inhibitor]
O=C(NC1=NN(c2ccccc2)CC1)Nc1ccccc1F | -17.0% | 9.0% | -0.6 | -5.7 | -7.7% | 2.8 | 28.0%
O=C(CCC1COc2ccccc2O1)NCC1COc2ccccc2O1 (stereo not drawn) | -1.4% | 9.4% | -1.5 | 6.7 | -1.9%[15.4 µM] | -14.6 | 3.1%
Cc1c(NC(=O)CSc2ccc(Cl)cc2)c(=O)n(-c2ccccc2)n1C | -1.6% | 13.8% | 5.4 | · | -1.5% | 13.5 | -8.4%
COc1cc(/C=N/N2C(=O)c3ccccc3NC2(C)c2cccc([N+](=O)[O-])c2)cc(Br)c1O (stereo not drawn) | -4.4% | 20.2% | -0.8 | -18.1 | -11.5% | 16.0 | ?
COc1ccc(C(=O)OCC(=O)c2ccc(S(=O)(=O)N3CCCCC3)cc2)c(OC)c1 | -1.9% | · | · | -10.0 | -4.6% | 14.2 | -12.2%[15.4 µM]
O=C(O)c1cccc(NC(=O)c2cc(NC(=O)c3ccccc3)cc(NC(=O)c3ccccc3)c2)c1 | · | 14.1% | 8.7 | -8.4 | -5.9% | 13.6 | -60.0%[inhibitor]
Cc1cc(C)cc(C(=O)NC(=S)Nc2cccnc2)c1 | -0.5% | -21.0% | · | 1.1 | -12.1% | 4.4 | ?
